StopGo reporter – lowers the luciferase signal of an FMDV 2A StopGo reporter. human cells with a luciferase reporter of 2A StopGo recoding; control for the full effect not named in the record. Potency, µM (doses to about 57.9 µM), without a hit: top-dose signal change, negative = less light. 410,000 tested, 1.2% active; active = well fitted falling curve with a large enough effect; inconclusive = small, poorly fitted or top-dose-only effect; inactive = no such curve, though single readings can be large or run the other way; tested in HEK293T cells; also: % is scaled to controls: 0 for no effect and ±100 for the full control effect; nearly all actives have a fitted effect of over 45% in size; luciferase light after 4 h
Cruzain inh noDet – cruzain (T. cruzi) inhibition without detergent. purified cruzain, Z-FR-AMC fluorescence, no detergent. P25779. Potency, µM, inactives show max response, negative = inhibition, actives largely listed as inhibitors. AID 1476. 200,000 tested, 2.3% active; active = well fitted curve in the direction sought with a large enough effect; inconclusive = small, poorly fitted or top-dose-only effect, or another doubt; inactive = no such curve, though single readings can be large; an effect the other way counts as inactive or inconclusive;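 also: plate controls were enzyme without inhibitor for no effect and buffer without enzyme for full effect; nearly all actives have a fitted effect of over 40% in size; top concentration of the series not given in the record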
Target sequence (P25779 123-467 limits assumed): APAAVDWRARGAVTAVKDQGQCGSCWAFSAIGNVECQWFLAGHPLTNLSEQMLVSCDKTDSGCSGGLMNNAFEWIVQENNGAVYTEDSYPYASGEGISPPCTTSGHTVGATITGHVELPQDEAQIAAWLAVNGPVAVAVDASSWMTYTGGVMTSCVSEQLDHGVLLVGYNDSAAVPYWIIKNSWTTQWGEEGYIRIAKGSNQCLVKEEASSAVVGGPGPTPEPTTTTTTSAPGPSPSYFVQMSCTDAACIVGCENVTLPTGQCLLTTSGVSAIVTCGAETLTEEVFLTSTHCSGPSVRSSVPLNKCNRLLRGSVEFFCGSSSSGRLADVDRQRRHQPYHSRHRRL
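Purified cruzain at 1.5 nM, pre-incubated 15 min with compound at room temperature in 100 mM sodium acetate pH 5.5, 5 mM DTT, 0.00005% Triton X-100. Reaction started with 2 uM Z-FR-AMC; AMC fluorescence increase over 60 s gives rate.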
SARS PLpro yeast – inhibitors of SARS-CoV papain-like protease in yeast | 330,000 tested, 0.19% active | S. cerevisiae expressing SARS-CoV PLpro, growth rescue; control for the full effect not named in the record | Potency, µM (top dose mostly 32.9 µM), for the others: at the top dose activity, positive = growth rescue | AID 485353; also: 0% is about no effect; nearly all actives have a fitted effect of over 55% in size; growth read by luminescence after 48 h
NS1 function inh – blocks influenza NS1 protein function | 270,000 tested, 0.4% active | AID 2326 | Potency, µM (titrated, usually from 46.1 µM), for the others: at the top dose activity, positive = more growth | S. cerevisiae slowed by influenza A NS1, growth recovery by OD600; also: actives are rising curves; nearly all actives have a fitted effect of over 50% in size
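Recovery from NS1-induced slow growth read by OD600 in budding yeast switched to galactose assay medium (pH 6.0, -URA) at 1:100 dilution. Compound 23 nl per well; the matching strain lacking NS1 serves as control.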
LASV entry inh – Lassa virus entry inhibition; Potency, µM (series often up to 37.9 µM), for the others: top-dose activity change, negative = inhibition, usual class: inhibitors; 300,000 tested, 1.2% active; Lassa virus pseudotype entry inhibition, cell reporter; control for the full effect not named in the record; AID 540256; active means well fitted inhibition curve with a large enough effect; inconclusive means small, poorly fitted or top-dose-only effect, or effect the other way; inactive means flat fitted curve, though single readings scatter; tested in HEK293 cells; also: % is scaled to controls: 0 for no effect and ±100 for the full control effect; nearly all actives have a fitted effect of over 50% in size; luciferase read-out
RE007 growth inh – less growth of the S. pombe RE007 Vpr strain; 360,000 tested, 0.21% active; AID 651644; Potency, µM (top dose mostly 92.2 µM), for the others: at the highest dose activity change, negative = less growth; S. pombe RE007 Vpr strain, BacTiter-Glo ATP luminescence, 24 h; control for the full effect not named in the record; active = well fitted falling curve with a large enough effect; inconclusive = small, poorly fitted or top-dose-only effect; inactive = no such curve, though single readings can be large or run the other way;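 also: % is scaled to controls: 0 for no effect and ±100 for the full control effect; nearly all actives have a fitted effect of over 50% in size; the assay follows cell death caused by Vpr and the record does not say whether a fall means rescue or toxicity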
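Fission yeast RE007 carrying one integrated HIV-1 vpr copy, seeded at OD 0.01 in PMG+AL medium with 23 nL pinned compound. Grown 24 h at 30 degrees; viability read by BacTiter-Glo luminescence after 5 min.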
Marburg entry inh – inhibitors of Marburg virus binding or cell entry; 300,000 tested, 1.8% active; Potency, µM (series often up to 37.8 µM), inactives show top-dose activity change, negative = inhibition, actives largely listed as inhibitors; AID 540276; Marburg virus pseudotyped entry inhibition, cell reporter; control for the full effect not named in the record; about a third of the inactives were read at about 46 µM; active = well fitted inhibition curve with a large enough effect; inconclusive = small, poorly fitted or top-dose-only effect, or effect the other way; inactive = flat fitted curve, though single readings scatter; tested in HEK293 cells; about a fifth of its hits are not listed in these tables; also: % is scaled to controls: 0 for no effect and ±100 for the full control effect; luciferase read-out
Cruzain inh Det – cruzain (T. cruzi) inhibition with detergent; P25779; purified cruzain, Z-FR-AMC fluorescence, 0.01% Triton; Potency, µM, without a hit: max response, negative = inhibition, hits mostly inhibitors; 200,000 tested, 0.43% active; AID 1478; active = well fitted curve in the direction sought with a large enough effect; inconclusive = small, poorly fitted or top-dose-only effect, or another doubt; inactive = no such curve, though single readings can be large; an effect the other way counts as inactive or inconclusive;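 also: plate controls were neutral wells for no effect and buffer without enzyme for full effect; nearly all actives have a fitted effect of over 40% in size; top concentration of the series not given in the record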
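Detergent-containing run (0.01% Triton X-100) in acetate buffer pH 5.5 with 5 mM DTT: enzyme at 1.5 nM final, 15 min compound preincubation at room temperature, then 2 uM Z-FR-AMC substrate. Activity taken as 60 s fluorescence increase at 360/450 nm.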
An asterisk follows results filed as active; ? = inconclusive; / = not tested or not shown; & = joins results of further samples; [ ] = remark or other dose. Unless noted, calls follow the shape of the dose curve; as a rule, active means well fitted rising curve with a large enough effect; inconclusive means small, poorly fitted or top-dose-only effect; inactive means no such curve, though single readings can be large or run the other way. Potency is read from the fitted curve at half-maximal effect. An unsorted share of the library, and some 4.8% of all compounds hit somewhere here.

molecule,Cruzain inh noDet,Marburg entry inh,SARS PLpro yeast,StopGo reporter,RE007 growth inh,LASV entry inh,Cruzain inh Det,NS1 function inh
O=[N+]([O-])c1cc(Cl)cc(/C=N/Nc2nc3ccccc3s2)c1O,/,?,-4%,-13%,-18%,?,/,-2%
Cc1nc(N2CCCCC2)nc(N2CCCCC2)c1C=O,/,14%[46.1 µM],-1%,-23%,-10%,?,/,/
O=S1(=O)CCC(N=Cc2ccc(-c3ccc(Cl)cc3)o2)C1 (stereo not drawn),/,?,-2%,23%,6%,?,/,-4%
COCCn1c(N)c(N(Cc2ccccc2)C(=O)c2oc3ccccc3c2C)c(=O)[nH]c1=O,/,0%,1%,0%,-14%,-19%,/,/
CS(=O)(=O)N1CCC(C(=O)Nc2c(F)cccc2F)CC1,-6%,/,4%,-5%,-9%,10%,5.7%,-1%
Cc1ccc(NC(=O)CSc2nc(C)c(C)c(C)n2)cc1S(=O)(=O)N1CCOCC1,/,1%,0%,40%[activator],-16%,-30%,/,/
CCOC(=O)NN=C1CCC(c2ccccc2)CC1 (stereo not drawn),/,/,0%,7%,10%,/,/,10%
Cc1ccc(-n2c(-c3ccc(Cl)cc3)c[n+]3c2CCC3)cc1,/,/,0%,?,10%,/,/,1%
Cc1cc(Cl)c(S(=O)(=O)NC2CCCC2)cc1OCC(=O)NC1CCCCC1,-5%,?,4%,-12%,-5%[3.69 µM],?,-4.2%,1%
CCCCN(CC)C(=O)Cn1cc2c(n1)-c1c(oc(C(=O)N3CCCC3)c1C)CC2,5%,/,/,-1%,/,-12%[46.1 µM],-1.3%,/
Cc1c(Cl)c([N+](=O)[O-])nn1CCCC(=O)Nc1ccc(Cl)cc1Cl,-12%,23%,-53%,-13%,7%,11%,-4.4%,-3%
CSCCCNC(=O)c1ccc(OC2CCN(CCc3ccccc3)CC2)cc1,/,/,0%,34%[activator],8%,/,/,1%
COc1ccc(C(=O)NCC(=O)Nc2ccc(F)cc2)cc1OC,11%,-6%,5%,7%,6%,4%,1.6%,2%
CCc1ccc(CNC(=O)c2ccc(Cn3c(=O)c4cccn4c4cccnc43)cc2)cc1,0%,/,/,-23%,/,5%[46.1 µM],-0.8%,/
CCc1ccc(C(=O)COC(=O)c2cnccn2)cc1,-5%,9%,-1%,-5%,2%,-3%,0.3%,-6%
O=C(O)C1CCCCC1C(=O)Nc1ccc(F)cc1F (stereo not drawn),-6%,4%,-18%,0%,8%,15%,3.9%,5%
CCOC(=O)C1CCN(C(=O)COC(=O)c2ccc(=O)n(Cc3ccccc3)n2)CC1,/,20%,-1%,-14%,2%,-6%[46.1 µM],/,/
Cc1ccc(NC2(c3nnnn3-c3c(C)cccc3C)CCCCC2)cc1,4%,?,-88%,-9%,-2%,?,-3.2%,20%
Nc1cccn2c(-c3ccc(Cl)cc3)cnc12,/,?,-9%,21%,-22%,?,/,/
COc1ccc(OC)c(CNC(=O)C2CCCN(c3nc4ccccc4o3)C2)c1 (stereo not drawn),?,19%,5%,1%,15%,2%,-1.3%,?
Cc1ccc(NC(=O)Cc2ccc(F)cc2)cc1,0%,25%,0%,/,-2%,25%,2.5%,0%
Cc1ccc(S(=O)(=O)NCCCNC(=O)OCc2ccccc2)cc1,/,4%,/,21%,28%,-19%,/,/
CCOc1ccc(C(=O)Nc2cccc(C)n2)cc1,7%,8.9µM*,-8%,-18%,?,?,2.2%,-9%
CCNc1nc(NC(C)C)nc(N(C#N)C(C)C(=O)N(C)C)n1 (stereo not drawn),-12%,6%,17%,14%,-6%,?,-1.0%,7%
Cc1ccc(-c2cc(C(=O)NCCc3ccccn3)c3ccccc3n2)c(C)c1,15%,?,7%,?,1%,?,-1.4%,-2%
O=C(Cc1ccc([N+](=O)[O-])cc1)NCCc1ccc2c(c1)OCO2,/,?,/,8%,9%,-2%,/,/
Cc1c(NC(=O)CSc2nnc(N)s2)c(=O)n(-c2ccccc2)n1C,3%,-4%,-19%,-14%,-8%,?,-0.6%,5%
COCCCN=C1NN=C(c2cc(C)n(Cc3ccccc3Cl)c2C)CS1,/,?,0%,-6%,-17%,?,/,/
O=C(O)CP(=O)(O)c1ccc(Cl)cc1,2%,?,-4%,1%,-1%,0%,2.4%,4%
O=C(Nc1ccc(Cl)cc1)OC(CN1CCCCC1)C(F)(F)F (stereo not drawn),-3%,0%,?,0%,1%,19%,5.3%,-32%

Next structures
molecule,Cruzain inh noDet,Marburg entry inh,SARS PLpro yeast,StopGo reporter,RE007 growth inh,LASV entry inh,Cruzain inh Det,NS1 function inh
CC(=O)N1CCCC1c1nc2ccccc2n1Cc1ccc(F)cc1 (stereo not drawn),10%,4%[46.1 µM],/,-21%,/,16%[46.1 µM],-2.5%,/
CCn1ccnc1CN(C)C(=O)c1cc(COc2ccc(OC)c3ccccc23)on1,/,-12%[46.1 µM],-1%,10%,-6%,?,/,-40%
CC1CCC(NC(=O)C2CCN(S(=O)(=O)c3cccc4nonc34)CC2)CC1 (stereo not drawn),/,4%[46.1 µM],-1%,15%,1%,5%,/,6%
O=C(CSCc1ccc(Cl)cc1)N/N=C/c1ccc(Cl)cc1Cl,-5%,7%,-3%,-9%,2%,-8%,-4.7%,7%
COc1ccc(C(CNC(=O)c2ccc(NS(=O)(=O)c3ccc(F)c(C)c3)cc2)N2CCOCC2)cc1 (stereo not drawn),/,?,-7%,-24%,-12%,-25%,/,/
CC(O)Cc1cn(CC(=O)N2CCN(C(=O)OC(C)(C)C)CC2)nn1 (stereo not drawn),/,/,3%,-12%,14%,/,/,5%
Fc1cccc(CNCC2CCCO2)c1 (stereo not drawn),/,-8%,9%,-6%,3%,19%,/,-3%
CC1Cn2c(nnc2C23CC4CC(CC(C4)C2)C3)S1 (stereo not drawn),7%,1%,-4%,/,6%,-7%,4.2%,6%
O=C(CSc1nnc(-c2ccc(F)cc2)o1)NC1CCCC1,/,-2%[46.1 µM],9%,6%,-7%,1%[46.1 µM],/,0%
CC1=CC(=O)N(c2ccc(C)cc2)C1c1ccc(Cl)cc1 (stereo not drawn),-8%,-24%,-13%,-22%,-8%,-26%,-8.0%,-1%
Cc1ccc(-n2ncc3c(=O)n(Cc4ccccc4C)cnc32)cc1C,-8%,16%[46.1 µM],/,22%,/,?,-0.3%,/
COC(=O)c1ccccc1CCC(C)=O,4%,-11%,-3%,-11%,-15%,?,-3.2%,-9%
O=C(CCc1ccc(O)c(O)c1)NNC(=S)NCCc1ccccc1,3%,5%,-5%,-23%,12%,?,-1.4%,14%
COc1ccccc1NC(=O)CSC1=NC(=O)C(NC(C)=O)C(=O)N1 (stereo not drawn),-5%,-1%,5%,-8%,14%,10%,-3.6%,1%
Cc1cc(NC(=O)Nc2cccc(Cl)c2)n(C(C)(C)C)n1,/,?,0%,7%,-22%,2%[46.1 µM],/,0%
Cc1nc(SCC(=O)Nn2c(-c3ccccc3)nc3ccccc3c2=O)n[nH]1,3%,22%[46.1 µM],0%,-4%,1%,16%,1.2%,5%
COc1ccc(-c2cc(C(F)(F)F)n3ncc(C(=O)NCc4ccco4)c3n2)cc1,-9%,8%,-3%,-9%,?,-2%,-2.6%,-7%
CCOc1ccc(CCNC(=O)c2cc(=O)[nH]c3ccc(S(=O)(=O)N4CCCCC4)cc23)cc1OCC,3%,/,/,-14%,/,?,0.1%,/
CCN(CC)c1nn2c(=O)c(C(=O)NCc3ccc(OC)cc3OC)cnc2s1,?,/,/,-10%,/,29%[46.1 µM],-10.0%,/
O=C(CCn1ccc2cc(S(=O)(=O)N3CCCC3)ccc21)NCc1ccccc1F,-6%,/,0%,-11%&0%,-12%,-15%[46.1 µM],-2.9%,-10%
CCc1nn2c(=O)c(S(=O)(=O)Nc3ccc(C)cc3C)c(C)nc2s1,-4%,?,/,-7%,/,4%[46.1 µM],-2.8%,/
CCC(C(=O)NC1CCCC1)N(C(=O)Cn1nnc(-c2ccc(OC)c(OC)c2)n1)C1CCCCC1 (stereo not drawn),?,?,-2%,21%,-8%,-15%,-4.0%,-45%
COc1ccc(NC(=O)c2noc(C(C)C)c2[N+](=O)[O-])cc1,/,0%[46.1 µM],0%,18%,14%,-6%[46.1 µM],/,/
O=C(NC1(C(F)(F)F)NC(=O)N(Cc2ccco2)C1=O)c1cccs1 (stereo not drawn),1%,12%,4%,-18%,0%,?,-2.7%,?
Cc1ccc(NC(=O)c2ccc(NC3=NC4CS(=O)(=O)CC4S3)cc2)cc1 (stereo not drawn),/,/,-3%,30%,3%,/,/,-11%
COC(=O)c1ccc(OC(=O)C2CSC3(C)CCC(=O)N23)cc1 (stereo not drawn),/,22%,4%,7%,-3%,13%[46.1 µM],/,/
CCCCNc1nc(=S)n(-c2ccccc2)c(C)c1C(C)=O,/,?,-1%,-18%,-17%,-22%[46.1 µM],/,/
COC(=O)C1=C(C(=O)OC)[C@@H]2Nc3ccccc3[C@@]23C[C@@H](C(=O)OC)N=C3N1,/,2%[14.2 µM],1%,-20%,3%,?,/,2%
Cc1ccc(NC(=O)Nc2ccc3c(c2)nnn3C)cc1C,/,14%[46.1 µM],7%,24%,5%,6%[46.1 µM],/,2%
CCNC(=O)CC1C(=O)N(C)C(=S)N1NC(=O)c1ccc(Cl)cc1 (stereo not drawn),0%,4%,9%,-3%,11%,-8%,2.1%,11%
Cn1nc(-c2ccccc2F)c2cc(C(=O)NCc3ccccc3Cl)sc21,-5%,21%[46.1 µM],/,-2%,/,?,6.0%,/
O=C(Cc1ccccc1F)NNC(=O)c1ccncc1,/,/,1%,-8%,0%,/,/,?
